Menin-MLL FL inh: inhibitors of human menin-MLL interaction, wild-type MLL peptide; Fluorescence polarization, fluorescein-MLL peptide displacement from menin; 290,000 tested, under 10 active; AID 1766; FP activity change, % at 61.4 µM; inconclusive = falling polarisation curve, or a change in total fluorescence; inactive = total fluorescence flat and polarisation flat or rising; no compound was filed as active; the % refers to the polarisation; negative = inhibition;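 further: % of control where 0% means no effect; inhibitors lower the polarisation; unlabelled MLL peptide was the positive control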
TRPML1 agonist: agonists of human TRPML1 channel; activation, % (concentration not given with the values); Q9GZU1; 410,000 tested, 0.12% active; TRPML1-expressing cells, Ca2+ dye fluorescence, FDSS; host cell line not named in the record; reference of the full effect not given here; in the data active = activation above about 50%; inconclusive = about 30% to 50%; inactive = below about 30%; further: 0% is about no effect; the text of the record puts the active cut at 80%
Target sequence (Q9GZU1 whole entry, looked up): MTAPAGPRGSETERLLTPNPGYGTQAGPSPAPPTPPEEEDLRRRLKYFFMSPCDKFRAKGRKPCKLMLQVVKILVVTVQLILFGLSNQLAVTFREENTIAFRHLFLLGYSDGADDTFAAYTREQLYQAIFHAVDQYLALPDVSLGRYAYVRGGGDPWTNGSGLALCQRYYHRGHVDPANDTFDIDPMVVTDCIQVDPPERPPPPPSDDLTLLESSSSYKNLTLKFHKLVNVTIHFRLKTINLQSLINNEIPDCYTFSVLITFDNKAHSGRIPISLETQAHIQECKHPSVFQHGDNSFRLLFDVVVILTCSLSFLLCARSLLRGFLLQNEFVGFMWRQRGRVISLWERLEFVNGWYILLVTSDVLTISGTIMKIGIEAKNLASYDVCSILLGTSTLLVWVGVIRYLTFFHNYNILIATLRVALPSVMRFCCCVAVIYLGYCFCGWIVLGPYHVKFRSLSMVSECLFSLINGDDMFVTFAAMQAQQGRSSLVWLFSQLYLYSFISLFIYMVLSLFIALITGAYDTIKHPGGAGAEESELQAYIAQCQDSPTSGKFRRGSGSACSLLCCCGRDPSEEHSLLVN
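Tetracycline-induced TRPML1-DL cells are seeded and incubated overnight before loading with a no-wash Ca2+ dye and quencher. Agonist activity is taken from the 110 s fluorescence read following compound pin-transfer on an FDSS, before EC80 54-4 challenge.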
gsp antag: antagonists of gsp mutant (McCune-Albright syndrome). AID 624288. 340,000 tested, 0.4% active. Potency, µM (highest dose often 76.9 µM), inactives show at the highest dose activity change, negative = inhibition, usual class: inhibitors. gsp-mutant cells, cAMP HTRF, 30 min; control for the full effect not named in the record; active = falling curve of any shape with a large fitted effect; inconclusive = falling curve, mostly with a smaller effect; inactive = flat or rising curve; cell line not stated here;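 further: intracellular cAMP measured with PDE inhibitor Ro 20-1724 present during compound exposure; potency means the concentration at half of the fitted maximal effect; on the % scale 0 is the no-effect control and ±100 the full control effect; nearly all actives have a fitted effect of over 65% in size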
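HTRF cAMP measurement after 30 min RT detection following 30 min, 37C compound treatment alongside […] (added as 300 uM solution) in G418-selected cells seeded at 2000/well and grown 16–24 h.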
TRPML1 inh: human mucolipin-1 channel inhibition; Q9GZU1; TRPML1-inducible cells, Ca2+ dye fluorescence, FDSS; active compounds read low; inhibition of EC80 agonist-evoked calcium signal; activity change, negative = inhibition, % (concentration not given with the values); 390,000 tested, 0.02% active; AID 624415; in the data active means activity change below about -50%; inconclusive means about -30% to -50%; inactive means above about -30%;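 further: stimulus is agonist 54-4 at its EC80 concentration; on the % scale 0 is the no-effect control and ±100 the full control effect; the text of the record puts the active cut at -80%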
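Tet-induced TRPML1-DL cells loaded with Ca8 no-wash calcium dye were read kinetically on FDSS. Compound addition was followed by EC80 agonist 54-4 (4 uM final); inhibition was read over 110 s.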
gsp ag: agonists of gsp mutant (McCune-Albright syndrome); gsp mutant cells, cAMP HTRF, 30 min; control for the full effect not named in the record; Potency, µM (series often up to 76.9 µM), without a hit: at the top dose activation (cAMP increase), most hits filed as activators; 340,000 tested, 0.13% active; active = well fitted activation curve with a large enough effect; inconclusive = small, poorly fitted or top-dose-only effect, or another doubt; inactive = no such curve, though single readings can be large or run the other way; cell line not stated here;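 further: phosphodiesterase inhibitor Ro 20-1724 added with compounds to block cAMP breakdown; potency means the concentration at half of the fitted maximal effect; nearly all actives have a fitted effect of over 60% in size; about a fifth of the inactives were tested at one dose only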
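Cells stably selected in G418 were plated at 2000/well, grown 16-24 hr, then given compounds in DMSO with the PDE inhibitor […] (300 uM solution added) for 30 min at 37C; cAMP was read by HTRF.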
ClpP mod: qHTS Assay for Activators of ClpP; ATP-dependent Clp protease proteolytic subunit (Bacillus subtilis (strain 168)), P80244; purified B. subtilis ClpP, FRET peptide cleavage, 20 min; Potency, µM (highest dose often 57.5 µM), without a hit: top-dose activity change, negative = active; 340,000 tested, 1.9% active; AID 651965, 2013; active = well fitted falling curve with a large enough effect; inconclusive = small, poorly fitted or top-dose-only effect; inactive = no such curve, though single readings can be large or run the other way; further: potency means the concentration at half of the fitted maximal effect; the source files actives as falling curves though it sought activators and does not explain the sign; nearly all actives have a fitted effect of over 65% in size; many hits overshoot -100%
Target sequence (P80244 whole entry, looked up): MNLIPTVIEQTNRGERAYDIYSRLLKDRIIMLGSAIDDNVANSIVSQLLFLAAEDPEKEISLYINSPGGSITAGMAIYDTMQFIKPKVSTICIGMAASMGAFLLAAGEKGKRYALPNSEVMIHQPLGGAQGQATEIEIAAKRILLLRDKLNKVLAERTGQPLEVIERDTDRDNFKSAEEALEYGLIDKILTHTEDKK
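Purified B. subtilis ClpP, 10 microg/mL final in Tris/HCl pH8 with KCl, BSA, glycerol and Tween-20, cleaved an Abz/nitrotyrosine-quenched decapeptide. Fluorescence (ex 320, em 430) was read at 0 and 20 min at room temperature. Delta was normalized to 5.8 microM ADEP and DMSO/no-enzyme controls.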
* hit, by the source's call; u = inconclusive; x = no result given; [ ] = dose if it differs, or a comment.

SMILES | Menin-MLL FL inh | TRPML1 agonist | gsp antag | TRPML1 inh | gsp ag | ClpP mod
c1ccc(-c2noc(COc3ccc4c(c3)OCO4)n2)cc1 | 2.0 | 1.1 | -0.9% | -4.0 | 19.4% | 2.8%
C=CCn1c(SCC(=O)N(C)CC(=O)Nc2ccc(C)cc2)nnc1-c1ccncc1 | x | -0.7 | 4.3% | -6.2 | -10.1% | x
CS(=O)(=O)N1CCN(c2ccc(C(=O)N3CCOCC3)cc2[N+](=O)[O-])CC1 | -5.6 | 0.6 | -1.3% | 18.8 | -9.0% | 1.3%
CCc1cccc(CC)c1NC(=O)CCCSc1nc2ccccc2s1 | 1.1 | 3.9 | -11.3% | 2.1 | 11.8% | -0.6%
O=C(Nc1ccnn1C1CCN(Cc2ccc(CO)o2)CC1)c1ccc2c(c1)OCO2 | -1.3 | 0.0 | 5.5% | 8.8 | 1.9% | 0.7%
COc1cc(OC)cc(-c2c(C#Cc3ccsc3)c3cc(-c4ccc(SC)cc4)ccc3n2C)c1 | x | -0.5 | 8.9% | -13.2 | 7.9% | 10.2%
COc1ccc(NC(=O)Cn2cc(S(=O)(=O)c3ccc(C)cc3)c(=O)c3ccccc32)cc1OC | x | -0.7 | x | 14.8 | x | -3.8%
CC(Sc1nnc(-c2ccccc2F)n1C1CC1)C(=O)NC(N)=O (stereo not drawn) | 0.1 | 0.2 | 14.7% | 9.5 | -14.2%[15.4 µM] | x
Cc1ccn2c(=O)cc(COc3ccc(NC(=O)COc4ccc(C)c(C)c4)cc3)nc2c1 | x | -0.3 | x | -1.7 | x | u
COc1ccc(CC(=O)NNC(=O)COc2ccc3ccccc3c2)cc1 | 3.7 | 0.9 | -17.8% | -20.1 | 7.7% | -4.0%
CCCCCC(=O)N1CCCC1 | -1.2 | 0.5 | 17.7% | 8.2 | 3.6%[15.4 µM] | x
CCCc1nc(SCC(=O)N2CCN(c3ccccc3)CC2)c2c(=O)n(C)c(=O)n(C)c2n1 | 4.7 | 0.1 | -11.6% | 6.2 | -24.8% | 0.9%
C=CCN(CC=C)S(=O)(=O)c1ccc2nsnc2c1 | 2.0 | 1.2 | -5.7% | 22.2 | 19.4% | 4.4%
COc1cccc(N(CC(=O)NCc2cccnc2)S(C)(=O)=O)c1 | -0.7 | 0.0 | 17.3% | 6.9 | 0.0% | -1.1%
CCN(C)Cc1c(C(=O)N2CCc3ccccc3C2)nc2ccc(Cl)cn12 | -10.2 | 0.4 | 2.8% | 4.6 | -8.9% | -2.6%

The final two compounds of the section before lead into the next.
SMILES | Menin-MLL FL inh | TRPML1 agonist | gsp antag | TRPML1 inh | gsp ag | ClpP mod
COc1cccc(N(CC(=O)NCc2cccnc2)S(C)(=O)=O)c1 | -0.7 | 0.0 | 17.3% | 6.9 | 0.0% | -1.1%
CCN(C)Cc1c(C(=O)N2CCc3ccccc3C2)nc2ccc(Cl)cn12 | -10.2 | 0.4 | 2.8% | 4.6 | -8.9% | -2.6%
COC(=O)CCSc1nc2sc3c(c2c(=O)n1Cc1ccccc1)CCC(C(C)(C)C)C3 (stereo not drawn) | x | 0.2 | x | -0.5 | x | 0.0%
Cc1cccc(-n2c(SCC(=O)NC3CCCC3)nnc2-c2ccoc2C)c1 | -2.1 | 1.0 | 5.4% | 24.9 | 10.4% | -3.6%
CC(C)C(=O)Nc1ccc(C(=O)NC2CCSC2=O)cc1 (stereo not drawn) | 0.3 | -0.3 | -2.8% | 16.0 | 21.8% | 2.6%
Cc1cc(N2C(=O)C(O)=C(C(=O)c3cc4ccccc4o3)C2c2cccs2)no1 (stereo not drawn) | x | 1.3 | 22.4% | 7.6 | 102.0%[15.4 µM] | x
O=C([C@@H]1CCCN1C1=NS(=O)(=O)c2ccccc21)N1CCN(c2ccccc2)CC1 | x | -0.9 | x | 2.9 | -45.2%[inhibitor] | 1.0%
CC1=C(C#N)C2(O)C(=O)c3ccccc3C2(O)N1 (stereo not drawn) | 1.1 | -1.0 | 11.2% | 0.6 | 4.2%[15.4 µM] | 0.5%
COc1ccc(C=O)cc1CSc1ncccc1C(=O)O | 6.1 | 0.0 | -4.1% | 15.4 | 17.6%[15.4 µM] | -0.9%
COc1ccc(-c2cc(=O)c3ccccc3s2)cc1 | 5.5 | 0.1 | -27.9% | 0.7 | 3.9% | -4.8%
CCN(CC(=O)Nc1ccc(NC(C)=O)cc1)C(=O)CCN1C(=O)C2CC=CCC2C1=O (stereo not drawn) | x | 0.6 | 7.9% | -5.9 | -18.0%[15.4 µM] | x
Cc1ccccc1N=C1NN=C(c2ccccc2F)CS1 | 0.6 | 3.4 | -3.9% | -6.9 | 21.8% | -3.8%
COc1ccc(-c2cc(=O)[nH]c(=O)[nH]2)cc1 | 2.3 | 0.2 | -5.4% | -4.4 | -13.0% | -0.6%
CCOC(=O)c1c(NC(=O)CSc2nncs2)sc(C)c1-c1ccccc1 | 10.7 | 1.4 | -24.8% | 3.8 | -12.6% | 0.3%
CCOC(=O)/C(C#N)=C/c1ccc(N2CCCCC2)cc1 | u | 18.2 | -24.7% | 8.2 | -2.2% | -0.2%
CC1CCN(C(=O)C(Cc2ccccc2)n2cccc2)CC1 (stereo not drawn) | 2.2 | 1.6 | -8.4% | 14.9 | -36.7%[inhibitor] | -1.8%
CCOC(=O)c1ccc(NC(=O)CC2C(=O)N(c3cccc(OC)c3)C(=O)N2C2CCCCC2)cc1 (stereo not drawn) | x | 0.4 | x | 2.5 | x | -0.1%
COc1cccc(CC(=O)Nc2nc3ccccc3[nH]2)c1 | -1.8 | 0.1 | 9.9% | 4.8 | -10.1%[15.4 µM] | -2.0%
Cc1cc(=O)c2ccc(Cl)cc2[nH]1 | -0.8[138 µM] | -0.5 | 9.0% | -10.1 | x | -2.7%
CCOC(=O)N1CCN(C(=O)c2c[nH]c3ccc(S(=O)(=O)N(C)c4ccccc4C)cc3c2=O)CC1 | -1.7 | -0.5 | 4.2% | -5.1 | -6.4% | 3.6%
Cc1ccc(NC(=O)c2cc3cccc([N+](=O)[O-])c3[nH]2)cc1 | 4.3 | 0.8 | u | -2.3 | 2.7% | 1.6%
CCc1ccccc1OCC(=O)NCC1COc2ccccc2O1 (stereo not drawn) | x | 2.6 | -10.0% | -15.3 | 19.7% | x
COc1ccc(CNC(=O)CNC(c2ccccc2)c2ccccc2)cc1OC | 5.7 | 1.0 | -3.0% | -6.1 | 2.3% | x
COc1ccc(CCN(Cc2ccc(C(C)C)cc2)S(=O)(=O)c2ccc(S(=O)(=O)N(C)C)cc2)cc1OC | 1.4 | 0.2 | 3.7% | -11.9 | 8.4% | u
O=C(O)c1cc2cccc(S(=O)(=O)N3CCCCC3)c2cc1O | 3.5 | 0.0 | 17.2% | 26.9 | 1.0%[15.4 µM] | -0.4%
CCn1c(SCC(=O)Nc2ccc3c(c2)OCO3)nc2c1c(=O)n(C)c(=O)n2C | 4.5 | -0.6 | 4.7% | -6.7 | 7.0% | -2.1%
Cc1cccn2c(=O)c3cc(C(=O)NCC4CCCO4)c(=N)n(Cc4ccc(F)cc4)c3nc12 (stereo not drawn) | x | -0.4 | -2.7% | 0.2 | 19.4% | 3.6%
CC1CCCCN1S(=O)(=O)c1cc2c(=O)nc3ccccn3c2cc1Cl (stereo not drawn) | x | 0.4 | x | -2.1 | x | 4.4%
Cc1ccc(CNC(=O)C(C)C2Sc3ccccc3NC2=O)cc1 (stereo not drawn) | 0.9 | 1.9 | 4.5% | -3.5 | -10.2%[15.4 µM] | x
CN(C)S(=O)(=O)c1ccc2oc(SCC(=O)c3c(N)n(C4CC4)c(=O)[nH]c3=O)nc2c1 | x | -0.4 | 21.2% | 24.2 | 19.3% | 1.6%
CCOC(=O)c1cc(CC)sc1NC(=O)c1ccc([N+](=O)[O-])c(N2CCOCC2)c1 | -7.6 | 0.9 | -1.1% | 36.3 | 1.4%[15.4 µM] | -0.9%
Cc1cc(C)c(NC(=O)CN2CCN(S(=O)(=O)c3ccc4c(c3)OCCO4)CC2)c(C)c1 | x | -0.5 | x | -11.8 | 4.6% | -2.3%
COc1ccc(Br)c(C(=O)OCC(=O)NC2CCCCCC2)c1 | x | 1.4 | -2.2% | 1.5 | -28.8% | -1.3%
CCc1ccc(NC(=O)C2CCN(C(=O)N3CCOc4ccccc43)CC2)cc1 | -3.2 | -0.2 | -25.7% | -2.1 | u | 0.1%
CCOC(=O)C1CCCN(S(=O)(=O)c2cc(C(=O)OC)n(C)c2)C1 (stereo not drawn) | -4.8 | -0.9 | -2.7% | -0.7 | u | 0.6%
CCn1c(CNC(=O)c2ccccc2F)nnc1SCCOc1ccccc1 | 1.8 | 0.6 | -9.3% | -7.1 | 12.4% | -0.3%
N[C@@H](Cc1ccccc1)C(=O)N1CCC(C(=O)NCC(=O)Nc2ccc(F)cc2)CC1 | x | 1.0 | 12.9% | 9.1 | u | x
O=C(c1cccc(Br)c1)N1CCN(C(=O)c2cccc(Br)c2)CC1 | 3.0 | 2.5 | 3.4% | -5.1 | 9.6% | -0.1%
O=C(Nc1ccccc1)N(Cc1c[nH]c2ccccc12)C1CCCCCC1 | x | 1.2 | x | 13.9 | x | -5.7%
COC(=O)C1=C(NC(=O)COc2ccc3ccccc3c2)CCS1 | 3.0 | -0.5 | -3.6% | 4.5 | -17.2% | 20.2%
NNC(=O)Cn1nnc(-c2ccc(C(F)(F)F)cc2)n1 | -1.2 | 0.5 | 2.5% | -26.9 | -30.8%[inhibitor] | -2.1%
COc1cccc(CN2CCN(C(=O)Nc3ccc([N+](=O)[O-])cc3)CC2)c1 | -4.8 | 0.3 | -2.9% | -8.8 | -11.5% | 0.2%
CCCCN(C)C(=O)C1CCC(=O)N(c2cc(OC)c(OC)c(OC)c2)C1c1ccc(OC)cc1 (stereo not drawn) | 3.7 | -0.3 | -10.6% | 9.6 | -9.5% | 0.7%
C/C(=N/OC(=O)c1ccc(C)cc1)C(=O)c1ccc(Br)cc1 | -2.1 | -0.3 | -4.6% | -0.9 | -7.6% | -3.1%
O=C(NCc1ccccc1)C(c1cccnc1)N(C(=O)c1ccccn1)c1cccc(F)c1 (stereo not drawn) | -8.6 | -0.5 | x | 3.7 | -4.7%[15.4 µM] | x
CCCCSc1nnc2c(n1)[nH]c1ccccc12 | 3.3 | -0.5 | 12.0% | 4.2 | 0.9% | 1.0%
Cc1ccc(S(=O)(=O)NCCC(=O)N2CCN(S(=O)(=O)c3cccc(F)c3)CC2)cc1C | x | 1.0 | -20.2% | -13.0 | 18.5%[15.4 µM] | x
O=[N+]([O-])c1ccc(O)c(/C=N/n2cnc3ccccc32)c1 | 3.2 | 3.8 | -19.9% | 8.5 | -5.3% | 1.8%
